# Sa ugtP lethal = growth inhibition of S. aureus ugtP deletion strain; S. aureus RN4220 ugtP deletion, OD600 growth, 16 h; some inactives read as strong as hits; growth inhibition, % (no concentration beside the values); actives 0.54% (n = 330,000); AID 1259309;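 active means z-score under -3 and OD600 up to 0.15 on both plates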;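 further: plate controls were untreated wells for no effect and antibiotic for full effect; wells of about 80 µL received 100 nL stock; the first replicate is given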
# RN4220 kill = S. aureus RN4220 growth inhibition; OD600, 16 h; inhibition, % (no concentration beside the values); actives 0.33% (n = 330,000);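 active means z-score of -3 or lower and OD600 up to 0.18 on both plates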;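 further: plate controls were untreated cells for no effect and reference antibiotic for full effect; stock transfer was 100 nL into about 80 µL; one replicate is shown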
# Active calls of the source: *. The list is partial; the hit share may differ from the screen's.
# Screens in order – Sa ugtP lethal	RN4220 kill
O=S(=O)(N=C(c1ccccc1)N1CCOCC1)c1cccs1
 : -4	0.6
CN(C)c1ccc(C=NN2C(=S)SC(C)(C)C2N(O)C(=O)Nc2ccc([N+](=O)[O-])cc2)cc1 (centres undefined)
 : -5	-4.7
COc1cccc(C(=O)NN=Cc2cn[nH]c2-c2ccc(OC)cc2OC)c1
 : 2	2.0
O=P(C(=NO)N1CCCCC1)(N1CCOCC1)N1CCOCC1
 : 4	2.8
Clc1ccccc1-c1nc(NN=Cc2cccnc2)c2ccccc2n1
 : -3	1.5
CC(=NNC(=O)c1cccs1)c1ccc(NC(=O)COc2ccc(Cl)cc2)cc1
 : -2	-0.1
CCOc1ccc(CNC(=S)NN=Cc2ccc([N+](=O)[O-])cc2)cc1
 : 2	1.2
Cc1cccc(C=NNC(=O)c2csnn2)c1
 : -5	-2.5
C=CCn1c(CNc2ccccc2)nnc1SCC(=O)NN=Cc1ccc(O)cc1O
 : 4	-3.3
C[C@H]1CC=C[C@H]2[C@H](O)[C@H](C)[C@@](C)(O)[C@H]3[C@H](Cc4ccccc4)NC(=O)[C@]32[C@H](O)C=C[C@](C)(O)C1
 : -4	3.7
CCOc1ccc(C=NNC(=O)c2ccc(Cn3cc([N+](=O)[O-])cn3)o2)cc1
 : -3	4.2
CCOC(=O)C1=C(C)N=c2sc(=Cc3ccncc3)c(=O)n2C1c1ccc2c(c1)OCO2 (centres undefined)
 : -2	-3.1
Cc1c(C=Nn2cnnc2)c2ccccc2n1CCOc1ccccc1
 : -5	-4.2
CCOc1ccc(C=c2sc3nc(-c4ccco4)nn3c2=O)cc1OCC
 : 5	-0.3
ON=C1CC2(Cc3nonc31)OCCO2
 : 4	4.8
CCOC(=O)c1c(-c2ccc(OC)cc2)csc1N=CN(C)C
 : 7	6.4
COc1ccc(-c2nn(-c3ccccc3)cc2C=NNC(=O)c2ccc3c(c2)OCO3)cc1
 : 28	12
Cc1ccc(C=NNC(=O)c2ccc(C(=O)NN=Cc3ccc(C)s3)o2)s1
 : -1	-2.2
COc1cc(C=NNC(N)=O)c(Br)cc1OCC(=O)Nc1ccccc1C
 : 3	1.7
Cc1ccc(-c2ccc(C=Nn3cnnc3)o2)cc1Cl
 : -9	-3.1
Cc1ccc(OCC(=O)NN=C/C=C/c2ccco2)cc1
 : -2	-0.3
C/C(C=NNC(=O)c1cc(C(C)(C)C)[nH]n1)=C\c1ccccc1
 : 12	-3.4
O=[N+]([O-])c1ccc(C=NN2CCN(c3ccc(Cl)cc3)CC2)cc1
 : 6	1.2
CCOc1cc(C=NNC(N)=O)cc(Br)c1OCC(=O)Nc1cccc2ccccc12
 : 4	3.8
CCN(CC)c1ccc(C=NNC(=S)NCc2ccccc2)cc1
 : 8	6.3
CN(C)C=c1sc2c(C#N)cc(C(=O)c3ccc(Br)cc3)n2c1=O
 : 4	2.3
COc1ccc(C2C(C(C)=O)=C(C)N=c3sc(=Cc4ccc5c(c4)OCO5)c(=O)n32)cc1 (centres undefined)
 : 0	2.7
CCOC(=O)c1c(C)[nH]c(C(C)=NO)c1C
 : 16	-0.2
C=CCn1c(COc2ccc(Cl)cc2)nnc1SCC(=O)NN=Cc1cccc(O)c1
 : -5	0.6
Cc1cc(C=Nn2cnnc2)c(C)n1-c1ccccc1
 : 3	1.0
Cc1ccsc1C=NNC(=O)c1sccc1C
 : -5	0.8
N#CC(=NNc1ccccc1)C(=N)N1CCCCC1
 : 4	1.6
Clc1ccc(-n2cccc2C=Nn2cnnc2)cc1
 : 1	-1.4
O=C(NN=Cc1ccc(O)cc1)c1csc2ccccc12
 : -5	5.7
Cc1ccccc1NN=C1CCCNC1=O
 : 6	0.4
CCCN1C(=O)C(=Cc2cc(C)n(C)c2C)SC1=Nc1ccc(OC)cc1
 : 49	-0.3
CCc1ccc(C=c2sc(=CC(=O)C(C)(C)C)[nH]c2=O)cc1
 : -12	10
Cc1ccc(C(=O)ON=Cc2c(Cl)n(C)c3ccccc23)cc1
 : 7	-0.1
Cc1ccc(-n2ncc(C#N)c2N=CN2CCOCC2)cc1
 : -2	-0.2
COC1=CC(=O)C(O)=C(CCCCCCCC=CCCCCCCCC2=C(O)C(=O)C=C(OC)C2=O)C1=O
 : 9	9.6
CC1CC(=NN2C(=O)CSC2=S)CC(C)(C)C1 (centres undefined)
 : 3	0.3
Cc1cccc(/C=C2/S/C(=N/N=C3CC4CCC3(C)C4(C)C)NC2=O)c1 (centres undefined)
 : 1	-8.1
O=C(CN(Cc1ccco1)S(=O)(=O)c1ccccc1)NN=Cc1cccc(O)c1
 : 6	0.4
O=c1c(=Cc2ccc([N+](=O)[O-])cc2)sc2n1CCCN=2
 : 3	1.6
O=[N+]([O-])c1ccccc1C=NN1CCN(c2ccc(Cl)cc2)CC1
 : -2	11
O=S(=O)(NN=Cc1ccc(Cl)cc1)c1ccc(Cc2ncc(C(F)(F)F)cc2Cl)s1
 : -25	7.1
C[C@@H]1CC[C@H](O)C=CC(=O)O[C@H](C)CC[C@H](O)C=CC(=O)O1
 : 12	2.8
COc1ccc(C(=O)Nc2ccccc2C(=O)NN=Cc2ccco2)cc1
 : 13	2.2
COc1ccc(Cc2nnc(NN=Cc3ccc(O)cc3O)[nH]c2=O)cc1OC
 : 5	3.0
O=C(NN=Cc1cccc(Br)c1)c1ccccc1-n1cccc1
 : -1	5.3
CC(=NNC(=O)c1csc2ccccc12)c1ccc(O)cc1
 : -3	-3.5
CCC(CC)C(=O)Nc1cccc(C(C)=NNC(=O)c2ccc(C)s2)c1
 : 0	1.7
Cc1cc(C=NNC(=O)CC2(C)OCCO2)c(C)n1-c1ccc(Cl)c(Cl)c1
 : -11	-3.0
CCOc1cc(C=NNC(=O)Cn2nc([N+](=O)[O-])cc2C)ccc1OCc1ccc(F)cc1
 : 5	-0.3
S=c1[nH]nc(-c2ccco2)n1N=Cc1ccc(Cl)cc1
 : 2	16
COC(=O)NN=C(C)c1ccccc1Br
 : 2	1.2
Cc1ccc(Oc2ncccc2C=NO)cc1
 : 6	0.9
O=C(CC=NOCc1ccc(F)cc1Cl)c1cnc(-c2ccccc2)s1
 : 12	2.8
Cc1cccc(C=NNC(=O)c2sccc2-n2cccc2)c1
 : 6	1.6
COc1ccc(Br)c(C=NNC(=O)COc2ccc(-c3ccccc3)cc2)c1
 : -8	-9.8

# Going on with the list:
# Screens in order – Sa ugtP lethal	RN4220 kill
O=C(NN=Cc1ccc(O)c(O)c1)C1c2ccccc2Oc2ccccc21
 : -13	1.5
COc1ccccc1OCC(=O)NN=C1CCc2ccccc21
 : -1	4.0
COc1ccccc1-c1cc(C(=O)NN=Cc2cccs2)c2ccccc2n1
 : 2	-5.3
COc1ccccc1C(=O)Nc1cccc(-c2cn3ccsc3n2)c1
 : -11	5.0
CC(Cn1nc([N+](=O)[O-])cc1C)=NNC(=O)c1cccc(Br)c1
 : 3	-1.3
COc1cc(C(C)=NNc2ccc(C(=O)O)cc2)cc(OC)c1OC
 : 9	3.7
O=C(Cn1cnc2ccccc21)NN=Cc1ccccn1
 : 8	-0.5
CN1CCN(C=Nc2c(C#N)cnn2C)CC1
 : 13	0.7
COc1ccc(CN2C(=O)c3ccccc3C(C=NOCc3ccc(Cl)cc3)C2=O)cc1 (centres undefined)
 : -26	15
Cc1cc(C)nc(N=C(NC(=O)c2ccccc2)Nc2ccccc2)n1
 : 5	2.8
Cc1ccc(CN(CC(=O)NN=Cc2ccco2)S(=O)(=O)c2ccc(C)cc2)cc1
 : -3	-2.7
COc1ccc(-c2cc(C(=O)NN=Cc3ccc4c(c3)OCO4)c3ccccc3n2)c(OC)c1
 : 0	-4.4
COc1ccc(COC(=O)NN=C(C)CC(=O)Nc2c(C)cc(C)cc2C)cc1
 : -5	4.4
COC(=O)Oc1ccc(C=NNC(=O)CN(c2ccccc2Cl)S(C)(=O)=O)cc1OC
 : 1	-4.4
CCCC(=NNC(=O)c1csc(C)c1C)c1cccs1
 : 9	2.0
CCCOc1ccc(C=NNC(=O)C2CCCN2S(=O)(=O)c2ccc(Cl)cc2)cc1 (centres undefined)
 : -4	-1.4
Nc1nonc1-n1nnc(C(=O)NN=Cc2cccc(Cl)c2)c1CN1CCCCCC1
 : 2	4.6
COc1ccc(Br)cc1C=NNC(=O)c1nc(-c2ccccc2)n2c1CCCCC2
 : 2	-3.8
CON=C(CS(=O)c1ccc(Br)cc1)c1ccc(OC)cc1 (centres undefined)
 : 9	7.2
CCOc1ccc(N(C(C)C(=O)NN=C(C)c2cccc(NC(=O)c3ccccc3)c2)S(C)(=O)=O)cc1 (centres undefined)
 : 2	-4.1
COc1ccc(C=NNC(=O)c2ccc(Cn3cc([N+](=O)[O-])cn3)o2)c(OC)c1C
 : 4	1.1
Cc1cc(C(=O)NN=C/C=C/c2ccc3c(c2)OCO3)n[nH]1
 : -7	-2.8
Cc1ccc(C)c(OCC(=O)NN=Cc2ccsc2)c1
 : 1	1.5
CCn1ncc(C=NNC(=O)c2cc(-c3ccc(C)cc3C)nc3ccccc23)c1C
 : 5	0.1
Cc1nn(-c2ccccc2)c(C)c1C=Nn1c(-c2ccc(Cl)cc2)n[nH]c1=S
 : -5	5.3
Cc1ccc(N(CC(=O)NN=Cc2cccs2)S(C)(=O)=O)cc1Cl
 : -9	-3.2
Cn1ccsc1=NS(=O)(=O)c1ccc(Br)cc1
 : 9	6.6
CC(=NNC(=O)c1ccc(OC2CCCC2)cc1)c1ccc(C)s1
 : 1	5.5
CCCCc1noc2c1C(=NO)CC(c1ccccc1)C2 (centres undefined)
 : 6	-0.2
C(/C=C/c1ccco1)=Nn1cnnc1
 : -3	1.3

# Entries of single compounds as entered above:
# Record of Cc1nn(-c2ccccc2)c(C)c1C=Nn1c(-c2ccc(Cl)cc2)n[nH]c1=S → Sa ugtP lethal: -5; RN4220 kill: 5.3
# Record of CC(=NNC(=O)c1ccc(OC2CCCC2)cc1)c1ccc(C)s1 → Sa ugtP lethal: 1; RN4220 kill: 5.5

# The list goes on:
# Screens in order – Sa ugtP lethal	RN4220 kill
COc1cc(C=NNC(=O)c2nc(-c3ccccc3)n(-c3ccccc3)n2)ccc1O
 : 5	3.2
COc1ccccc1NC(=S)NN=Cc1cccc(C)c1
 : 12	7.2
CCN(CC)S(=O)(=O)c1ccccc1C=NO
 : -4	9.2
C(=Nc1nccs1)c1c[nH]c2ccccc12
 : -2	0.7
Cc1cc(O)c(C=NNc2ccccc2)c(=O)o1
 : -5	-2.3
Cn1ccsc1=NS(=O)(=O)c1ccc(C(C)(C)C)cc1
 : 1	0.6
Cc1[nH]c2ccccc2c1C=Nn1cnnc1
 : 13	-0.7
Cc1cc(C)cc(-n2c(C)cc(C=NNC(=O)CN(c3c(C)cccc3C)S(C)(=O)=O)c2C)c1
 : 6	-4.2
Cc1ccc(C=NN2CCN(c3ccncc3S(=O)(=O)N3CCCCC3)CC2)cc1
 : 5	-3.6
C(=Nn1cnnc1)c1cccc(OCCOc2ccccc2)c1
 : -6	-0.9
Cc1cc(C=Nn2cnnc2)c(C)n1-c1ccc(OCc2ccc(Cl)cc2Cl)cc1
 : 18	-2.5
O=S(=O)(N=C(Nc1cc(N2CCOCC2)ncn1)c1ccccc1)c1ccccc1
 : 1	-1.2
CCNC(=O)CC(C)=NNC(=O)C12CC3CC(CC(C3)C1)C2
 : 6	-0.1

# Structures shown so far that contain an aryl methoxy group (22):
# Screens in order – Sa ugtP lethal	RN4220 kill
COc1cccc(C(=O)NN=Cc2cn[nH]c2-c2ccc(OC)cc2OC)c1
 : 2	2.0
CCOC(=O)c1c(-c2ccc(OC)cc2)csc1N=CN(C)C
 : 7	6.4
COc1ccc(-c2nn(-c3ccccc3)cc2C=NNC(=O)c2ccc3c(c2)OCO3)cc1
 : 28	12
COc1cc(C=NNC(N)=O)c(Br)cc1OCC(=O)Nc1ccccc1C
 : 3	1.7
COc1ccc(C2C(C(C)=O)=C(C)N=c3sc(=Cc4ccc5c(c4)OCO5)c(=O)n32)cc1 (centres undefined)
 : 0	2.7
CCCN1C(=O)C(=Cc2cc(C)n(C)c2C)SC1=Nc1ccc(OC)cc1
 : 49	-0.3
COc1ccc(C(=O)Nc2ccccc2C(=O)NN=Cc2ccco2)cc1
 : 13	2.2
COc1ccc(Cc2nnc(NN=Cc3ccc(O)cc3O)[nH]c2=O)cc1OC
 : 5	3.0
COc1ccc(Br)c(C=NNC(=O)COc2ccc(-c3ccccc3)cc2)c1
 : -8	-9.8
COc1ccccc1OCC(=O)NN=C1CCc2ccccc21
 : -1	4.0
COc1ccccc1-c1cc(C(=O)NN=Cc2cccs2)c2ccccc2n1
 : 2	-5.3
COc1ccccc1C(=O)Nc1cccc(-c2cn3ccsc3n2)c1
 : -11	5.0
COc1cc(C(C)=NNc2ccc(C(=O)O)cc2)cc(OC)c1OC
 : 9	3.7
COc1ccc(CN2C(=O)c3ccccc3C(C=NOCc3ccc(Cl)cc3)C2=O)cc1 (centres undefined)
 : -26	15
COc1ccc(-c2cc(C(=O)NN=Cc3ccc4c(c3)OCO4)c3ccccc3n2)c(OC)c1
 : 0	-4.4
COc1ccc(COC(=O)NN=C(C)CC(=O)Nc2c(C)cc(C)cc2C)cc1
 : -5	4.4
COC(=O)Oc1ccc(C=NNC(=O)CN(c2ccccc2Cl)S(C)(=O)=O)cc1OC
 : 1	-4.4
COc1ccc(Br)cc1C=NNC(=O)c1nc(-c2ccccc2)n2c1CCCCC2
 : 2	-3.8
CON=C(CS(=O)c1ccc(Br)cc1)c1ccc(OC)cc1 (centres undefined)
 : 9	7.2
COc1ccc(C=NNC(=O)c2ccc(Cn3cc([N+](=O)[O-])cn3)o2)c(OC)c1C
 : 4	1.1
COc1cc(C=NNC(=O)c2nc(-c3ccccc3)n(-c3ccccc3)n2)ccc1O
 : 5	3.2
COc1ccccc1NC(=S)NN=Cc1cccc(C)c1
 : 12	7.2

# Compound activity: PubChem BioAssay, ICCB-Longwood Screening Facility, Harvard Medical School
